Source: PubChem
SARS PLP yeast = SARS-CoV PLP inhibition in yeast; S. cerevisiae expressing SARS-CoV PLpro, growth rescue; control for the full effect not named in the record; Potency, µM (highest dose often 32.9 µM), for inactives: at the top dose activity, positive = growth rescue; actives 0.19% (n = 330,000); further: 0% is about no effect; nearly all actives have a fitted effect of over 55% in size; growth read by luminescence after 48 h
NS1 inh = influenza NS1 inhibition | S. cerevisiae slowed by influenza A NS1, growth recovery by OD600 | Potency, µM (series often up to 46.1 µM), inactives show at the top dose activity, positive = more growth | actives 0.4% (n = 270,000) | AID 2326; further: actives are rising curves; nearly all actives have a fitted effect of over 50% in size
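OD600 was taken as the measure of yeast growth restored by compound in an NS1-expressing S. cerevisiae strain. Cells had been washed out of glucose medium and diluted 1:100 into galactose -URA medium, pH 6.0.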
RE007 growth inh = less growth of the S. pombe RE007 Vpr strain | S. pombe RE007 Vpr strain, BacTiter-Glo ATP luminescence, 24 h; control for the full effect not named in the record | Potency, µM (titrated, usually from 92.2 µM), without a hit: top-dose activity change, negative = less growth | actives 0.21% (n = 360,000); active = well fitted falling curve with a large enough effect; inconclusive = small, poorly fitted or top-dose-only effect; inactive = no such curve, though single readings can be large or run the other way;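 further: on the % scale 0 is the no-effect control and ±100 the full control effect; nearly all actives have a fitted effect of over 50% in size; the assay follows cell death caused by Vpr and the record does not say whether a fall means rescue or toxicity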
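Fission yeast strain RE007, carrying one chromosomally integrated HIV-1 vpr copy, was seeded at OD 0.01 in PMG+AL medium with 23 nL pinned compound. After 24 h at 30 °C and 99% humidity, viability was read by BacTiter-Glo luminescence.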
Cruzain Triton = cruzain (T. cruzi) inhibition with detergent; P25779; purified cruzain, Z-FR-AMC fluorescence, 0.01% Triton; Potency, µM, for the others: max response, negative = inhibition, actives largely listed as inhibitors; actives 0.43% (n = 200,000); AID 1478; active means well fitted curve in the direction sought with a large enough effect; inconclusive means small, poorly fitted or top-dose-only effect, or another doubt; inactive means no such curve, though single readings can be large; an effect the other way counts as inactive or inconclusive;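 further: plate controls were neutral wells for no effect and buffer without enzyme for full effect; nearly all actives have a fitted effect of over 40% in size; top concentration of the series not given in the record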
Target sequence (P25779 123-467 limits assumed): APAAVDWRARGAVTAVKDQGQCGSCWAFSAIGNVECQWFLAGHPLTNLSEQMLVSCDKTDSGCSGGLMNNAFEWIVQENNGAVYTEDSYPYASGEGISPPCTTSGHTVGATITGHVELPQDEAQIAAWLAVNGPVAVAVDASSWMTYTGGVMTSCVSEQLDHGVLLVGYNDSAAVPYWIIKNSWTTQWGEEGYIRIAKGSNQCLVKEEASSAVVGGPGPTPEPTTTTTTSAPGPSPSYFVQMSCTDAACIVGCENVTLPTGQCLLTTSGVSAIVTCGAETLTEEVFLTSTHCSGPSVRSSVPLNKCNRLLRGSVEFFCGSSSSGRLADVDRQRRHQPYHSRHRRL
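Cysteine protease activity tested under reducing, mildly acidic conditions (100 mM sodium acetate pH 5.5, 5 mM DTT) plus 0.01% Triton X-100. Cruzain 1.5 nM; substrate Z-FR-AMC 2 uM; 15 min compound preincubation at room temperature.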
StopGo reporter = FMDV 2A StopGo reporter, luciferase signal. human cells with a luciferase reporter of 2A StopGo recoding; control for the full effect not named in the record. Potency, µM (top dose mostly 57.9 µM), for the others: top-dose signal change, negative = less light. actives 1.2% (n = 410,000). AID 1159524; active = well fitted falling curve with a large enough effect; inconclusive = small, poorly fitted or top-dose-only effect; inactive = no such curve, though single readings can be large or run the other way; tested in HEK293T cells; further: on the % scale 0 is the no-effect control and ±100 the full control effect; nearly all actives have a fitted effect of over 45% in size; luciferase light after 4 h
Lassa entry inh = blocks Lassa virus binding to or entry into cells; Lassa virus pseudotype entry inhibition, cell reporter; control for the full effect not named in the record; Potency, µM (series often up to 37.9 µM), without a hit: at the top dose activity change, negative = inhibition, hits mostly inhibitors; actives 1.2% (n = 300,000); active means well fitted inhibition curve with a large enough effect; inconclusive means small, poorly fitted or top-dose-only effect, or effect the other way; inactive means flat fitted curve, though single readings scatter; tested in HEK293 cells; further: on the % scale 0 is the no-effect control and ±100 the full control effect; nearly all actives have a fitted effect of over 50% in size; luciferase read-out
MARV entry inh = inhibitors of Marburg virus binding or cell entry | Marburg virus pseudotyped entry inhibition, cell reporter; control for the full effect not named in the record; about a third of the inactives were read at about 46 µM | Potency, µM (series often up to 37.8 µM), inactives show at the top dose activity change, negative = inhibition, usual class: inhibitors | actives 1.8% (n = 300,000); active = well fitted inhibition curve with a large enough effect; inconclusive = small, poorly fitted or top-dose-only effect, or effect the other way; inactive = flat fitted curve, though single readings scatter; tested in HEK293 cells; about a fifth of its hits are not listed in these tables; further: on the % scale 0 is the no-effect control and ±100 the full control effect; luciferase read-out
Cruzain inh noDet = blocks cruzain activity in detergent-free assay. purified cruzain, Z-FR-AMC fluorescence, no detergent. Potency, µM, for the others: max response, negative = inhibition, usual class: inhibitors. actives 2.3% (n = 200,000); active means well fitted curve in the direction sought with a large enough effect; inconclusive means small, poorly fitted or top-dose-only effect, or another doubt; inactive means no such curve, though single readings can be large; an effect the other way counts as inactive or inconclusive;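 further: plate controls were enzyme without inhibitor for no effect and buffer without enzyme for full effect; nearly all actives have a fitted effect of over 40% in size; top concentration of the series not given in the record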
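Purified cruzain at 1.5 nM, pre-incubated 15 min with compound at room temperature in 100 mM sodium acetate pH 5.5, 5 mM DTT, 0.00005% Triton X-100. Reaction started with 2 uM Z-FR-AMC; AMC fluorescence increase over 60 s gives rate.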
* marks the source's active call; other numbers are inactive results; ? = inconclusive; / = not tested or not shown; & = joins results of further samples; [ ] = dose if it differs, or a comment. Unless noted, the call rests on the fitted dose curve; in most records, active means well fitted rising curve with a large enough effect; inconclusive means small, poorly fitted or top-dose-only effect; inactive means no such curve, though single readings can be large or run the other way. Potency means the concentration at half of the fitted maximal effect.

SMILES	SARS PLP yeast	NS1 inh	RE007 growth inh	Cruzain Triton	StopGo reporter	Lassa entry inh	MARV entry inh	Cruzain inh noDet
Cc1n[nH]c(=S)n1-c1ccccc1	1%	4%	-17%	/	5%	19%[46.1 µM]	?	/
CC1=NN(C(C#N)c2ccc([N+](=O)[O-])cc2)C(C)(C)C1 (stereo unspecified)	-1%	0%	0%	/	-3%	-8%	8%[14.2 µM]	/
Cc1ccc(N2CC(NC(=O)C3CC3)CC2=O)cc1 (stereo unspecified)	-1%	/	5%	/	14%	-3%	-1%[46.1 µM]	/
O=C(Nc1cccc(NC(=O)c2ccccc2Cl)c1)c1cccs1	-5%	-43%	-7%	/	0%	-21%	-20%	/
O=C1CCCC2=C1C1(CCCCC1)N=C(Nc1nc3ccccc3s1)N2	/	5%	-3%	0.2%	17%	12%	-23%	-2%
CSc1nnc(-c2sc3cc(C(F)(F)F)cnc3c2-c2ccccc2)n1C	-9%	0%	2%	-3.6%	-19%	?	1.6µM*	?
COc1ccc(NS(=O)(=O)c2ccc(O)c(C(=O)OCC(=O)NC3CCCCC3)c2)cc1	2%	-10%	16%	/	31%[activator]	?	-1%[46.1 µM]	/
CCOC(=O)C1CCCN(C(=O)c2ccccc2NC(=O)c2nsc3ccccc23)C1 (stereo unspecified)	/	/	/	-5.0%	-18%	?	/	11%
COC(=O)CNC(=O)CSc1nc2c(sc(=S)n2-c2ccccc2)c(=O)[nH]1	-2%	2%	5%	/	1%	1%	4%[46.1 µM]	/
COC(=O)COC(=O)c1ccccc1NC(=O)c1ccccc1	-62%	-57%	-19%	-3.1%	-24%	3%	19%	6%
O=C(CCn1cnnn1)N1CCCC(Nc2ccc(F)cc2)C1 (stereo unspecified)	2%	-7%	3%	/	1%	-2%	14%	/
O=C(Nc1ccc(S(=O)(=O)Nc2ncccn2)cc1)C1COc2ccccc2O1 (stereo unspecified)	1%	/	7%	/	-10%	1%[46.1 µM]	0%	/
COC(=O)c1sc(S(=O)(=O)Nc2ccc(Br)cc2)c(C(=O)OC)c1C	-72%	4%	1%	-2.9%	54%[activator]	?	-18%	-6%
COCC(C)(C)COS(N)(=O)=O	10%	6%	10%	/	0%	/	/	/
Cc1ccccc1-n1nc(C)c2cc(C(=O)N3CCOCC3)sc21	5%	-6%	10%	4.7%	18%	-4%	2%	3%
Cc1ccc(NC(=S)N(Cc2ccc(Br)cc2)Cc2ccc(C(=O)O)cc2)cc1C	-6%	/	6%	/	-10%	-9%	-11%[46.1 µM]	/
CC(=O)NS(=O)(=O)c1cccnc1Nc1cccc(Cl)c1	3%	1%	-7%	7.0%	0%	-8%	7%	13%
CCC(Sc1nc2ccccc2c(=O)n1CCc1ccc(OC)c(OC)c1)C(=O)N(CC)CC (stereo unspecified)	/	/	/	-2.7%	-22%	?	/	?
COc1ccccc1-n1c(-c2ccccc2)c[n+]2c1CCc1ccccc1-2	-6%&1%	1%	-5%&-26%	/	3.2µM*	2.8µM*	?	/
CC1Cc2ccccc2N1C(=O)CN1CCc2ccccc2C1 (stereo unspecified)	13%	-14%	8%	3.7%	-19%	3%	-3%	5%
CC1(c2ccccc2)CC(C)(C)N2C(=O)/C(=C3\SC(=S)NC3=O)c3cccc1c32 (stereo unspecified)	21%	9%	14%	-9.8%	?	-1%	?	7.9µM*
Cc1ccc(S(=O)(=O)N2CCN(C(=O)CCC(=O)OCC(=O)Nc3cccc(C#N)c3)CC2)cc1	-2%	-6%	-12%	0.8%	4%	11%	26%&26%[46.1 µM]	?
CCc1ccc(NC(=O)Cn2c(=O)n(CCC(=O)NC3CCN(Cc4ccccc4)CC3)c(=O)c3ccccc32)cc1	-1%	-5%	5%	/	-15%	/	/	/
CCN(c1ccccc1)S(=O)(=O)c1nnc(NC(=O)c2ccco2)s1	2%	2%	-4%	0.3%	21%&35%	9%[46.1 µM]	/	-5%
O=C(NCCS(=O)(=O)NCc1ccccc1)c1ccc2c(c1)OCO2	-2%	/	-2%	/	5%	20%	1%[46.1 µM]	/
C/C(=N/NC(=O)Cc1cccn1C)c1ccccc1	-5%	9%	-8%	3.4%	/	22%	7%	-1%
CN1CCN(S(=O)(=O)c2ccc(NC(=O)Cc3ccc([N+](=O)[O-])cc3)cc2)CC1	4%	7%	-23%	/	-10%	-3%	20%	/
CCCCN(CC)CCCNC(=O)c1cc2c(=O)n(C)c3ccccc3c2n1C	-3%	-13%	7%	-8.7%	-8%	/	/	0%
Cc1ccc(NC(=O)c2ccc3[nH]c(C)cc(=O)c3c2)c(C)c1	/	/	/	-7.5%	1%	12%[46.1 µM]	?	-6%
Cc1ccc(S(=O)(=O)c2c(C)cc(-c3ccccc3)[nH]c2=O)cc1	3%	9%	-17%	-2.2%	?	-6%	?	-11%
Cc1ccccc1-c1nnc(SCC(=O)Nc2c(C)n(C)n(-c3ccccc3)c2=O)o1	/	/	3%	/	2%	0%	?	/
CC(C)COc1ccc(C(=O)N/N=C/c2ccoc2)cc1	-4%	2%	28%	/	32%[activator]	/	/	/
O=C(CCN1C(=O)C2(OCCO2)c2ccccc21)c1ccccc1	-3%	-16%	11%	-1.6%	0%	5%	?	3%
Cc1cc(=O)n(C)c(=O)n1CCCCCCN1CCCC1	1%	13%	0%	-0.1%	/	6%	-9%	-1%
Cc1c(/C=C(\C#N)C(=O)NCc2ccccc2)cc(C#N)n1C	2%	-6%	3%	/	-7%	14%	-2%[46.1 µM]	/
O=[N+]([O-])c1cc(Cl)ccc1N1CCCCC1	1%	/	8%	/	-19%	3%	?	/
Cc1ccc(Cn2ccn(Cc3cccc(C(F)(F)F)c3)c(=O)c2=O)cc1	/	/	/	-7.0%	2%	-21%[46.1 µM]	/	?
O=C(Nc1ccc(OC(F)(F)F)cc1)c1cc(-c2ccc(Cl)cc2)on1	/	/	/	-3.1%	-9%	14%[46.1 µM]	28%[46.1 µM]	9%
Cc1cc(C)cc(Nc2cc(C(=O)NCCCN(C)C3CCCCC3)c3ccccc3n2)c1	/	/	/	-8.0%	?	-27%[46.1 µM]	?	0%
Cc1nnc(SCc2ccccn2)n(N)c1=O	6%	/	3%	/	-2%	/	1%[46.1 µM]	/
Cn1cccc1C(C#N)c1cccc(F)c1C#N (stereo unspecified)	1%	/	3%	/	-4%	-25%[46.1 µM]	?	/
Cc1ccc(C(=O)NNC(=O)C2CCN(Cc3ccccc3)CC2)cc1	-1%	13%	-3%	5.9%	-8%	7%	?	3%
Cc1ccsc1/C=C1/SC(=O)N(CC(=O)N2CCCC2)C1=O	-1%	-9%	5%	/	4%	?	14%[46.1 µM]	/
CC(CN1CCCC1)OC(=O)c1ccc(Cl)cc1Cl (stereo unspecified)	-3%	-17%	-21%	/	28%	/	/	/
O=C(Nc1ccccc1C(F)(F)F)NC1CCCCC1	-2%	2%	3%	7.7%	21%	11%	?	0%
CSc1ccccc1NC(=O)Cn1nnc(-c2ccc(S(C)(=O)=O)cc2)n1	1%	/	-1%	/	-10%	-3%	3%	/
COc1ccc(-n2c(SC3CCOC3=O)nc3ccccc3c2=O)cc1OC (stereo unspecified)	-1%	?	-5%	-1.2%	26%	13%	5%	1%
COC(=O)C1=C(N)Oc2c(oc(CO)cc2=O)C1c1ccccc1F (stereo unspecified)	3%	-8%	7%	2.9%	0%	-1%	3%	10%
CCN(CC(=O)NCc1cccs1)S(=O)(=O)c1ccc(F)c(F)c1F	/	/	0%	/	-17%	1%	3%	/
Oc1ccc2ccc(Cl)cc2c1	/	/	2%	/	2%	-2%	?	/
c1cc2c(c(NCc3ccncc3)c1)CCCC2	-8%	-13%	/	1.6%	-26%	/	-4%	-2%
COc1ccc(S(=O)(=O)NCc2ccccn2)cc1NC(=O)c1ccc(Cl)cc1	7%	/	4%	/	14%	?	?	/
C=CCn1c(SCC(=O)c2cccs2)nc2sc(C)c(C)c2c1=O	-9%	6%	-3%	-6.6%	-24%	-17%	/	-17%
COc1ccc(C)cc1NC(=O)CSc1nnc(COc2ccccc2)n1Cc1ccco1	-2%	-75%	15%	-7.1%	-36%	-6%	?	8%
COc1cccc(CNC(=O)c2ccc(C)c(S(=O)(=O)N3CCOCC3)c2)c1	8%	/	6%	/	3%	-5%	23%	/
N=C1C(c2nc3ccccc3c(=O)[nH]2)=C(O)CN1CCc1ccccc1	15%	-6%	-4%	-1.3%	-19%	/	/	-24%
C=CCOC(=O)C1=C(C)NC(C)=C(C(=O)OCC=C)C1c1ccco1	1%	-1%	2%	/	-27%	/	-3%	/
CCOC(=O)c1sc(NC(=O)c2ccccc2OC)nc1C	-5%	0%	-3%	-5.8%	6%	/	/	5%
COC(=O)c1cc2n(n1)CCN(Cc1ccc(OC)cc1)C2=O	-10%	-4%	9%	5.2%	?	0%	6%	-1%
C/C(=N\N=C1\NC(=O)C(Cc2ccccc2)S1)c1ccccc1 (stereo unspecified)	-25%	/	-12%	/	3%	2.3µM*	25%	/
(cont.)
SMILES	SARS PLP yeast	NS1 inh	RE007 growth inh	Cruzain Triton	StopGo reporter	Lassa entry inh	MARV entry inh	Cruzain inh noDet
Cc1nnc(SCC(=O)Nc2cc(S(=O)(=O)N3CCOCC3)ccc2C)s1	3%	/	-17%	/	-9%	22%	-3%[46.1 µM]	/
Cc1cc(C)c2cc3c(N)c(C(=O)N4CCOCC4)sc3nc2c1	2%	4%	4%	/	80%[activator]	15%	-18%[46.1 µM]	/
Cc1nn(C)c(C)c1NC(=O)c1ccccc1NC(=O)Nc1ccccc1	0%	-2%	-8%	/	8%	/	/	/
CC(=O)Nc1ccc(C(=O)OC2CCCCC2=O)cc1 (stereo unspecified)	14%	10%	1%	2.8%	19%	5%	-6%[46.1 µM]	-15%
CN(C)S(=O)(=O)N1CCC(Oc2cccc(C(=O)NC3CCCCCC3)c2)CC1	?	-21%	-9%	/	?	?	?	/
C=C(C)[C@@H]1CC=C(CN2CCN(Cc3ccccc3)CC2)CC1	-1%	2%	-11%	/	-2%	?	10µM*	/
